KCNQ2 pot – potentiators of rat KCNQ2 potassium channel. O88943. CHO-K1 KCNQ2, FluxOR thallium flux fluorescence; stronger effect = higher value. B-score at 10 µM. actives 0.54% (n = 310,000). AID 2239;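 active means fluorescence ratio B-score at least 3 SD of library B-scores, with initial fluorescence B-score within 3 SD, cut at about 5.3 in these data; same plate scores as AID 2156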;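 further: B-score of peak minus minimum over baseline fluorescence ratio after K+ and Tl+ stimulus; positive B-score means potentiation of KCNQ2 with more thallium influx and brighter signal; only the inactives scoring about 0 or higher are listed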
Target sequence (O88943 whole entry, looked up): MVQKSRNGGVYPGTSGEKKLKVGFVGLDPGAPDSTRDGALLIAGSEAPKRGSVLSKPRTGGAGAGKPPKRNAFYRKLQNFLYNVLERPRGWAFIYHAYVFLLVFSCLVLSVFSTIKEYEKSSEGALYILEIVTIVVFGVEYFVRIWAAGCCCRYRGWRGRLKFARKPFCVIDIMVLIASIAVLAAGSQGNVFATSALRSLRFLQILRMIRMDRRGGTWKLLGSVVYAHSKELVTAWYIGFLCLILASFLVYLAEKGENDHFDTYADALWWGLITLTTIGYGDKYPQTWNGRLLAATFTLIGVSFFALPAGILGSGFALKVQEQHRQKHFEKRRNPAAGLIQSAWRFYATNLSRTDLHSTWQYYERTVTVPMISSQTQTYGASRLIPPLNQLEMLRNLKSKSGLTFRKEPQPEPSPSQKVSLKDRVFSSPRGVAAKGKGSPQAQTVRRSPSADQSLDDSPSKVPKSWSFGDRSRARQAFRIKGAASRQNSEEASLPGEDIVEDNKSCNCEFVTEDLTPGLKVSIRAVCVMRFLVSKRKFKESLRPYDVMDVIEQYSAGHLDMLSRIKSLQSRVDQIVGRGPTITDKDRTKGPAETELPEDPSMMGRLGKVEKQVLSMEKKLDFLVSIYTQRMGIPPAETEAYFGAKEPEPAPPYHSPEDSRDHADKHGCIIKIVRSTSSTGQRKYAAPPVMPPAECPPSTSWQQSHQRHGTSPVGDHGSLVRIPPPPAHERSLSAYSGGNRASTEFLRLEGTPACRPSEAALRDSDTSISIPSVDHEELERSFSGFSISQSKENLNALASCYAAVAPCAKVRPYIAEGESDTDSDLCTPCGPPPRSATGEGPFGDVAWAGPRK
KCNQ2 pot baseline – recorded beside KCNQ2 pot, whose call it bears; B-score; compound at 10 µM; measured here: initial fluorescence intensity artifact check;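 brightness before thallium and not channel activity; 0 = typical well and far values either way flag optical interference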
An asterisk follows results filed as active.

SMILES | KCNQ2 pot | KCNQ2 pot baseline
Cc1cc(NS(=O)(=O)c2ccc(NC(=O)C(CC(C)C)N3C(=O)c4ccccc4C3=O)cc2)nc(C)n1 (centres undefined) | 0.05 | 0.76
CCN(CC)CC(=O)Nc1ccc(C)cc1Br | 1.1 | -3
CCC(C)(C)NC(=O)Nc1cc(Cl)ccc1OC | 0.61 | 1.3
Cc1cc(=O)n(CC=C(Cl)Cl)c2ccccc12 | 0.88 | -1.4
NS(=O)(=O)c1cccnc1Nc1c(Cl)cccc1Cl | 0.3 | -0.64
O=C(O)c1[nH]c2ccc(Br)cc2c1CCN1C(=O)c2cccc([N+](=O)[O-])c2C1=O | 0.71 | -1.2
C#CCOCCOCCOCCNc1nc(N2CCN(C(=O)C([C@@H](C)CC)n3cc(C(N)Cc4ccc(O)cc4)nn3)CC2)nc(N2CCN(C(=O)[C@H](CCC(=O)O)n3cc(C(N)Cc4ccc(O)cc4)nn3)CC2)n1 (some centres undefined) | 0.58 | 2.3
Cc1ccc(NC(=O)Nc2cnccn2)c(C)c1 | 0.03 | -0.07
CCCc1cc(=O)oc2cc(OCC(=O)N3CCOCC3)c(Cl)cc12 | 0.21 | -0.4
CCN(CC)C(=O)C1CCCN(c2ccc([N+](=O)[O-])cc2/C=N/NC(=O)c2ccccc2)C1 (centres undefined) | 0.3 | -1.6
Cc1ccnc(NS(=O)(=O)c2ccccc2)c1 | 0.11 | 2.4
O=C(CC1CCCC1)NCCc1cn2ccccc2n1 | 0.05 | 0.69
CCc1ccc(NC(=O)C(=O)N/N=C(\C)CC(=O)NCCOC)cc1 | 1.7 | 0.95
Cn1c(NNC(=O)c2ccccc2F)cc(=O)n(C)c1=O | 0.39 | 0
COc1ccc(S(=O)(=O)N2CCN(CC(=O)Nc3cccc(F)c3)CC2)cc1 | 0.47 | 0.59
Cc1ccc(Nc2n[nH]c(C)c2[N+](=O)[O-])cc1 | 0.06 | 2.3
Cc1ccc(-n2[nH]c(C)c(C=Nc3ccc4[nH]c(=O)[nH]c4c3)c2=O)cc1C | 0.83 | 0.95
CCNC(=O)NC(=O)C(C)OC(=O)Cc1coc2cc3c(cc12)CCC3 (centres undefined) | 0.04 | -0.31
O=C(Nc1ccc(-c2nnc(-c3ccco3)o2)cc1)C(c1ccccc1)c1ccccc1 | 2.2 | -2
CC(C)(C)N(NC(=O)OCc1ccccc1)C(=O)c1ccccc1Cl | 7.7* | -1.2*
Cc1cccc(C)c1NC(=O)C[n+]1cc(-c2ccccc2)n2c1CCC2 | 0.26 | -0.61
CSC1=C(C#N)C(CC(C)C)C2=C(CCCC2=O)N1 (centres undefined) | 1.4 | 1.8
Cc1ccc(NC(=O)Cn2c(CCC(=O)O)ccc2-c2cccs2)cc1Cl | 0.01 | 0.2
CCOC(=O)c1c(NC(=O)COC(=O)c2ccccc2NC)sc(C(=O)N(C)C)c1C | 0.56 | 0.06
Cc1ccc(SCC(=O)NC(C)c2ccccc2)cc1 (centres undefined) | 2.4 | -2.3
CCO[C@H]1OC(C(=O)NC2CC2)=C[C@@H](c2c[nH]c3ccccc23)[C@@H]1CCCO | 1.6 | 0.6
CC1CN(C(=O)CCN2C(=O)c3ccccc3C2=O)CC(C)O1 (centres undefined) | 0.52 | 0.57
COc1ccc(CCNC(=O)CSc2ncnc3c2oc2ccccc23)cc1OC | 1.1 | 1.6
Cc1c(OCC(=O)N2CCC[C@@H]2C(=O)O)ccc2c3c(c(=O)oc12)CCC3 | 0.02 | 3
Cc1nnsc1SCCNC(=O)Nc1ccc(Cl)cc1 | 1.6 | -0.33
CC(=O)Nc1ccc(SC[C@H](CC(C)C)N2CCN(CC(C)C)CCC2=O)cc1 | 0.42 | 0.93
Cc1ccc(S(=O)(=O)Nc2ccc(-n3c(C)nc4ccccc4c3=O)cc2)cc1 | 0.19 | -3
COC(=O)c1ccccc1NC(=O)/C=C/c1ccco1 | 0.13 | 0.59
CC(C)C(=O)NC(C)C(c1cccs1)N1CCOCC1 (centres undefined) | 0.1 | -2.9
CSCCC(NC(=O)c1cccc(S(=O)(=O)N2CCOCC2)c1)C(=O)Nc1cccc(C)c1 (centres undefined) | 1.6 | 0.37
CC(C)(C)NCC(O)COc1ccccc1C(C)(C)C (centres undefined) | 0.75 | 0.26
NCCc1nnc(SCC(=O)Nc2cccc(Cl)c2)o1 | 0.82 | 1
O=C(Nc1ccc(F)c(Cl)c1)c1cccnc1 | 1.1 | 0.97
COCCn1nnnc1C(CC(C)C)N1CCN(c2ccccc2)CC1 (centres undefined) | 0.03 | -0.44
CCN1CCCC1CN(Cc1cc2c(C)cc(C)cc2[nH]c1=O)C(=O)NC1CCCCC1 (centres undefined) | 1.5 | 0.89
Nc1nnc(-c2cccc([N+](=O)[O-])c2)o1 | 0.62 | 0.53
Cc1cc(CSc2ccccc2)ccc1NC(=O)c1ccc(Cl)c([N+](=O)[O-])c1 | 0.94 | -0.38
CCOC(=O)c1ccc(NC(=O)CCc2nc(-c3ccc(Cl)cc3)no2)cc1 | 0.39 | -1.2
Cc1ccc(-c2c(C(=O)N/N=C/C3CCCCC3)nnn2-c2nonc2N)cc1 | 0.37 | -0.68
O=C(O)C1CC(=O)N(c2ccc(OCc3ccccc3)cc2)C1 (centres undefined) | 0.55 | -0.32
O=c1[nH]c(NCCO)c(N=Cc2ccccc2)c(=O)[nH]1 | 1.4 | -0.71
O=C(Nc1nnc(S(=O)(=O)N2CCN(c3ccc(F)cc3)CC2)s1)c1ccco1 | 0.66 | -1.1
O=[N+]([O-])c1ccc2nc(CN3CCCCC3)[nH]c2c1 | 1.1 | 0.11

Structural class, the compounds so far containing a thiophene ring, fused or not
SMILES | KCNQ2 pot | KCNQ2 pot baseline
Cc1ccc(NC(=O)Cn2c(CCC(=O)O)ccc2-c2cccs2)cc1Cl | 0.01 | 0.2
CCOC(=O)c1c(NC(=O)COC(=O)c2ccccc2NC)sc(C(=O)N(C)C)c1C | 0.56 | 0.06
CC(C)C(=O)NC(C)C(c1cccs1)N1CCOCC1 (centres undefined) | 0.1 | -2.9

Additional structures follow:
SMILES | KCNQ2 pot | KCNQ2 pot baseline
COc1ccc(C(=O)/C=C/N2CCCCC2)cc1OC | 0.32 | -1.6
O=c1[nH]c(N/N=C/c2cc3c(cc2[N+](=O)[O-])OCO3)nc2ccccc12 | 1.1 | 1.1
CC(NC(=O)c1ccc(Cl)cc1)c1nnc(SCc2ccc([N+](=O)[O-])cc2)n1C (centres undefined) | 1.3 | -0.65
CS(=O)(=O)c1ccc(C(=O)Nc2cc(S(C)(=O)=O)ccc2Cl)cc1 | 0.78 | 0.61
C/C=C/Cn1c(Br)nc2c1c(=O)n(C)c(=O)n2C | 1.8 | -0.91
FC(F)(F)c1ccccc1NC(=S)NN1CCOCC1 | 2.1 | -1.4
Cc1cc(N/C=C/C(=O)c2cccs2)ccc1F | 1.5 | 2.4
COCCCN1CC(=O)N2C(c3ccc(C)cc3)c3[nH]c4ccccc4c3C[C@H]2C1=O (some centres undefined) | 1.6 | -0.8
CCN(CC)C(=O)CSc1nc2ccccc2c(=O)n1CC | 0.8 | -0.08
CN(C)CC(O)CN(c1ccccc1)c1ccccc1 (centres undefined) | 0.69 | 0.08
CCNC(=O)c1ccc(-n2nc(C)cc2-c2ccccc2)cc1 | 1.9 | -0.2
Fc1cccc(CN2CCN(Cc3nc(-c4cnccn4)no3)CC2)c1 | 0.96 | -0.97
CCn1c(SCC(=O)Nc2nc(C)c(C)s2)nnc1-c1ccco1 | 1.8 | 0.84
CCOC(=O)c1cccc(N2C(=O)c3ccccc3S2(=O)=O)c1 | 2.5 | -3.4
O=C(NCc1ccc(Cl)cc1)N1CCN(S(=O)(=O)c2ccccc2)CC1 | 0.64 | -0.14
CCN(CC)S(=O)(=O)c1cc(C(=O)OCC(=O)c2ccc3c(c2)NC(=O)CO3)ccc1F | 0.51 | 3.4
O=C(COC(=O)c1ccc(Cl)c([N+](=O)[O-])c1)Nc1ccccc1OC(F)F | 0.65 | 0.59
CCn1c(Oc2ccccc2F)nc2c1c(=O)n(C)c(=O)n2C | 0.73 | 1.6
CC(C)(C)OC(=O)N1CCC[C@H]1C(=O)O | 0.33 | -1.4
Cc1[nH]c2ccccc2c1C(=O)CSc1nc2ccccc2[nH]1 | 0.26 | -1.4
O=C(Nc1ccc(C(=O)NCCCN2CCN(c3ccccc3)CC2)cc1)C1=CSCCO1 | 0.05 | -0.42
Cc1nnc(OCC(=O)NCCC2=CCCCC2)c2ccccc12 | 0.7 | -0.22
Cc1ccc(C(C#N)c2ccc3c(C(F)(F)F)cc(C(F)(F)F)nc3n2)cc1 (centres undefined) | 3.7 | -1
C/C(CC(=O)Nc1ccc(C)c(Cl)c1)=N\NC(=O)Cc1ccccc1 | 0.86 | -0.47
O=C(Nc1ccc(N2CCCCC2)cc1)c1ccc(F)cc1F | 1 | 2.9
CC(=O)c1ccc(NC(=O)C2CCN(S(=O)(=O)c3ccc4c(c3)N(C(C)=O)CCO4)CC2)cc1 | 0.39 | 2
CCCCn1c(SCC(N)=O)nnc1-c1cc(OC)c(OC)c(OC)c1 | 2.3 | 0.03
CCc1ccc(NC(=S)N2CCCC(C(F)(F)F)C2)cc1 (centres undefined) | 0.66 | -1.1
CN1c2ccccc2C(O)=C(C(=S)Nc2ccc(F)c(Cl)c2)S1(=O)=O | 1.9 | -1.1
CC(C)CN(C(=O)c1ccc(S(=O)(=O)N2CCCC2)cc1)C1CCS(=O)(=O)C1 (centres undefined) | 1 | 1.2
CCN(CC)S(=O)(=O)c1ccc2oc(Nc3ccccc3)nc2c1 | 1.1 | -0.02
O=C(N/N=C/c1cccs1)c1cccc(NC(=O)c2ccc(Cl)cc2)c1 | 0.05 | 1.7
Cc1ccc(C(=O)NCCCNc2ccc(C(F)(F)F)cc2[N+](=O)[O-])cc1 | 1.9 | -2
CCCc1nc(SCC(=O)O)c2sc(=S)n(-c3ccccc3)c2n1 | 1.8 | -0.14
Cc1ccc2c(=O)cc(C(=O)NCCc3ccc(S(N)(=O)=O)cc3)oc2c1C | 0.08 | -1.4
CC1Cc2ccccc2N1S(=O)(=O)c1c(N)n(C)c(=O)n(C)c1=O (centres undefined) | 0.23 | 1.1

The last six entries of the part before open the next one.
SMILES | KCNQ2 pot | KCNQ2 pot baseline
CCN(CC)S(=O)(=O)c1ccc2oc(Nc3ccccc3)nc2c1 | 1.1 | -0.02
O=C(N/N=C/c1cccs1)c1cccc(NC(=O)c2ccc(Cl)cc2)c1 | 0.05 | 1.7
Cc1ccc(C(=O)NCCCNc2ccc(C(F)(F)F)cc2[N+](=O)[O-])cc1 | 1.9 | -2
CCCc1nc(SCC(=O)O)c2sc(=S)n(-c3ccccc3)c2n1 | 1.8 | -0.14
Cc1ccc2c(=O)cc(C(=O)NCCc3ccc(S(N)(=O)=O)cc3)oc2c1C | 0.08 | -1.4
CC1Cc2ccccc2N1S(=O)(=O)c1c(N)n(C)c(=O)n(C)c1=O (centres undefined) | 0.23 | 1.1
COC(=O)CN1C(=O)Nc2ccc(C)cc2C1c1ccccc1 (centres undefined) | 3.5 | -0.19
CCOC(=O)c1sc2c(c1C)c(=O)n(CCO)c(=O)n2Cc1ccccc1 | 2.9 | -0.13
O=C(CCCC(=O)OCC(Cl)=C(Cl)Cl)Nc1ccccc1F | 1.7 | 1.5
O=C(Nc1ncccn1)c1ccc([N+](=O)[O-])cc1[N+](=O)[O-] | 1.1 | 0.77
Cc1c(C(=O)Nc2ccc(-c3nnc4n3CCCCC4)cc2)oc2ccc(Br)cc12 | 1.2 | 0.06
COc1ccc(N2CCN(C(=O)COc3ccc(S(=O)(=O)N4CCOCC4)cc3C)CC2)cc1 | 0.13 | -1.2
CC(C)c1ccc2[nH]c(O)c(N=NC(=O)c3cccc(S(=O)(=O)Nc4cccc(Cl)c4)c3)c2c1 | 0.55 | 0.1
Nc1nc(CN2CCN(Cc3ccccc3)CC2)nc(N2CCCc3ccccc32)n1 | 1.5 | 0.37
COc1cc(/C=N/NC(=O)c2ccncc2)ccc1OC(=O)c1cccc(F)c1 | 1.3 | -0.69
Cc1cc(=O)[nH]c(SCC(=O)Nc2ccccc2C#N)c1C#N | 1.3 | 0.01
CC1(C)CC(=O)c2sc(N3CCCCC3)nc2C1 | 1.2 | 0.53
Fc1ccc(Oc2cnns2)cc1 | 1.4 | -0.79
COc1ccc(N(CC(=O)Nc2cc(C)on2)S(=O)(=O)c2ccc(Cl)cc2)cc1 | 0.23 | 0.63
CCOC(=O)c1ccc(NC(=O)CSc2nnc(NC(=O)c3ccc(S(=O)(=O)N4CCOCC4)cc3)s2)cc1 | 0.04 | 0.37
Cc1cc(NC(=O)c2ccc(Cn3cc([N+](=O)[O-])cn3)o2)no1 | 0.59 | -0.31
COc1ccc(N2C(=O)C(F)(F)C2c2ccccc2F)cc1 (centres undefined) | 1.4 | 2.7
O=S(=O)(N1CCOCC1)N1CCOCC1 | 0.54 | -0.48
CN(C)CCCNC(=O)C(=O)NCC1CCCO1 (centres undefined) | 0.05 | 1.3
O=C(NCc1ccco1)c1ccc(Cl)c(S(=O)(=O)N2CCOCC2)c1 | 0.5 | -0.11
CC(C)(C)NC(=O)C(c1ccc(O)cc1)N(C(=O)CCC(=O)Nc1ccccn1)c1ccc(F)cc1 (centres undefined) | 0.16 | 0.02
O=C(O)/C=C/c1ccc(S(=O)(=O)Nc2ccccc2C(=O)Nc2ccc(F)cc2)cc1 | 1.9 | 0.4
COc1cc(SC)ccc1C(=O)Nc1ncc(Cl)cc1Cl | 0.45 | 0.06
CCOC(=O)c1[nH]c2ccc(C)cc2c1NC(=O)CN1CCCCC1 | 0.71 | -0.01
CC1CCN(C(=O)c2cc(-c3ccccc3O)on2)CC1 | 0.16 | 1.4
O=C(NCCc1ccc(Cl)cc1)c1cc2ccccn2n1 | 0.24 | 0.01
Cc1ccc(Sc2ccc(/C=C3/C(=O)NN(c4ccccc4)C3=O)o2)cc1 | 0.16 | -3.5

Compound activity as filed in PubChem.

Some of the compounds tested; the hit share may differ from the screen's.
